# MbtI inh: MbtI salicylate synthase inhibition | purified MbtI enzyme, fluorescence intensity read-out | P9WFX0 | hit rate 0.89% among 100,000 | inhibition, %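 (about 17 µg/mL by stock and volumes)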;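 active = above 50% in both replicates, above 80% if mildly self-fluorescent; inactive = the rest, strongly fluorescent compounds included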;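 note: 0% = mean of negative and 100% = mean of positive controls; one replicate is shown; some compounds called inactive have numbers as strong as hits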
# Polio RdRp inh: poliovirus RNA polymerase inhibition. P03300. poliovirus polymerase elongation, fluorescence polarization; active compounds read low. % elongation, % (compound at 16.7 µg/mL). hit rate 0.66% among 150,000; in the data active = % elongation below about 90%; note: some results filed as inactive read as strong as hits
# Target sequence (P03300 1749-2209 limits assumed): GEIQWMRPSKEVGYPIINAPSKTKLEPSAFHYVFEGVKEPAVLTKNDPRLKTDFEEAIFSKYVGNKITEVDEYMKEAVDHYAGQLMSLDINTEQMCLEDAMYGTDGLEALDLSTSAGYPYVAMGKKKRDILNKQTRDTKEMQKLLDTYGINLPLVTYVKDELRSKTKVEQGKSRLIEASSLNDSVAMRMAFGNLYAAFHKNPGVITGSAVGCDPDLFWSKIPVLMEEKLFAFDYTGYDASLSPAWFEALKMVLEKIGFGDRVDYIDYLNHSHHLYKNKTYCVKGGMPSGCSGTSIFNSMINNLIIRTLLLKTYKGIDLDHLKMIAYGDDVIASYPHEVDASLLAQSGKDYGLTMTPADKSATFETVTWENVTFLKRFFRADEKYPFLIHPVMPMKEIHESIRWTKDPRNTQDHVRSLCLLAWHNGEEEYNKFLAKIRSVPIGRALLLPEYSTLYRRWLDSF
# MenB inh: Mtb MenB enzyme inhibition; hit rate 0.43% among 100,000; P9WNP5; inhibition, %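 (about 12 µg/mL by stock and volumes)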; MenB enzyme assay, absorbance read-out; some hits fall short of the stated cut; AID 540299;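 active = mean of two replicates above 30%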;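 note: 0% = no compound and 100% = wells with inactive enzyme; the first replicate is given; strong numbers were not always called active; inactives centre near -10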
# Target sequence (P9WNP5 whole entry, looked up): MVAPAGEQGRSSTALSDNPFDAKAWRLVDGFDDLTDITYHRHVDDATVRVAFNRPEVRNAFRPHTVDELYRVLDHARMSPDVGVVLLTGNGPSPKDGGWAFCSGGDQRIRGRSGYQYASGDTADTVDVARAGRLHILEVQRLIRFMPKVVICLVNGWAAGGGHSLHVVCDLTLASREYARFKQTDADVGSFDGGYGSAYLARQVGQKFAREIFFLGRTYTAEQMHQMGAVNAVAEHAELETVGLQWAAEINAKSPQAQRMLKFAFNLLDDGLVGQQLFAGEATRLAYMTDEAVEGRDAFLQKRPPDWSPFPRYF
# Polio RdRp inh intensity: also measured in Polio RdRp inh; calls as there; % elongation; measured here: total intensity read-out; formula for this scale not given here;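 total fluorescence in place of polarization; lower means less elongation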
# Starred values were filed as active, the others as inactive; i = inactive; nt = no result given.
Structure,MbtI inh,Polio RdRp inh,Polio RdRp inh intensity,MenB inh
O=C(CNS(=O)(=O)c1ccccc1)NCc1ccccn1,-1.6,nt,nt,-71.0
CC1=CCC2CC1C(c1ccc(N(C)C)cc1)OC2(C)C (configuration not stated),-13.2,101.0,103.0,-25.9
CC(C)CCNC(=O)C1(C)CCC(=O)N1Cc1cccs1 (configuration not stated),-0.8,99.0,102.0,-10.0
Cn1c(=O)c(C(=O)NCCN2CCNCC2)c(O)c2ccccc21,34.4,102.0,103.0,-5.2
O=CN1CCN(C(=S)Nc2ccc(Cl)cc2Cl)CC1,3.1,102.0,106.0,-6.8
COc1cccc(-c2cc(C(F)(F)F)nc(N3CCCCC3)n2)c1,4.0,100.0,103.0,0.0
CCc1ccc(OCCCC(N)=O)cc1,-6.2,102.0,103.0,-22.0
O=C(OCc1cc(=O)n2ccsc2n1)c1cc(-c2cccs2)nn1-c1ccccc1,-7.0,83.0,101.0,-40.2
CC1(C)CC(=O)C=C(N2CCN(c3ccccc3F)CC2)C1,5.7,109.0,108.0,-9.8
O=C(O)c1cccc(S(=O)(=O)N2c3cccc4cccc(c34)S2(=O)=O)c1,27.4,98.0,98.0,2.5
CCC(NC(=O)Nc1cc(C)cc(C)c1)c1c(-n2cccc2)sc2c1CCN(CC)C2 (configuration not stated),-7.3,103.0,108.0,-21.1
NC(N)=NC(N)=Nc1ccc2ccccc2c1,-23.0,103.0,102.0,-12.5
Cc1cccc(-n2ncc3c(N(C)Cc4ccccc4)ncnc32)c1,56.4,99.0,103.0,-8.7
Cc1cc(C)c2c(n1)SCC(=O)N2CCCC(=O)NC(C)C,0.0,100.0,102.0,11.0
Cc1ccc(S(=O)(=O)NC(=O)OCC2CN(Cc3ccccc3)CCO2)cc1 (configuration not stated),-3.1,101.0,119.0,-3.1
O=C(/C(=N\O)n1cncn1)c1ccccc1Cl,8.2,104.0,106.0,-12.0
Cc1cc2ncn(S(=O)(=O)c3ccc(S(=O)(=O)NCC4CCCO4)cc3)c2cc1C (configuration not stated),-4.5,100.0,103.0,16.3
O=C(O)COc1cccc(C(F)(F)F)c1,-1.8,96.0,105.0,nt
CC1CCCC(C)N1C(=O)COC(=O)c1ccc2ccccc2n1 (configuration not stated),0.7,99.0,103.0,nt
Cc1nnc(SC(C)C(=O)C23CC4CC(CC(C4)C2)C3)n1C (configuration not stated),6.7,96.0,92.0,-16.0
CN(C(=O)c1cc2ccc3cccnc3c2[nH]1)c1ccccc1,-16.8,102.0,102.0,-25.9
Cc1cc(C(=O)CN2C(=O)NC(Cc3c[nH]c4ccccc34)C2=O)c(C)n1C (configuration not stated),-3.4,103.0,109.0,5.6
c1ccc(OCc2cc(-c3ccccc3)n[nH]2)cc1,-5.2,102.0,105.0,nt
COc1ccc(-c2csc(C3=C(O)CN(CC(C)(C)CN(C)C)C3=N)n2)cc1OC,12.4,105.0,82.0,-24.9
CCOc1ccc(N2C(=O)CCC2=O)cc1,nt,106.0,112.0,-6.4
COc1cccc(-c2nn(Cc3ccccc3)cc2C(=O)N(C)CC(=O)NCc2ccco2)c1,2.0,104.0,101.0,-6.3
COc1cc2[nH]c(=O)c(C(=O)NCCN3CCNCC3)c(O)c2cc1OC,88.0,99.0,89.0,-9.6
COC(=O)c1ccc(NCC(O)Cn2nnnc2-c2ccccc2)cc1 (configuration not stated),-11.1,104.0,106.0,-5.4
Cc1nn(-c2ccccc2)c(C)c1CN(C)CC(=O)Nc1ccccc1C#N,-1.2,102.0,102.0,2.0
COc1ccc(NC2CC(O)C(CO)O2)cc1 (configuration not stated),4.8,102.0,105.0,0.4
CCN(Cc1ccncc1)Cc1c(O)ccc2ccccc12,40.4,99.0,107.0,-12.6
O=C1c2ccccc2C(=O)N1CCCCSc1nnc(-c2ccc(OC(F)F)cc2)o1,2.8,103.0,100.0,-28.8
Cc1ccc(S(=O)(=O)NNC(=S)Nc2ccccc2)cc1,-7.7,102.0,95.0,-18.6
COc1ccc(-n2c(C)cc(C(=O)COc3ccc(-n4cnnn4)cc3)c2C)cc1,-2.2,99.0,103.0,-12.2
O=C(COC(=O)c1cc[n+]([O-])cc1)c1ccc2[nH]c(=O)[nH]c2c1,12.2,81.0,85.0,-31.4
CC(C)C(=O)N1CCN(c2ccc(NC(=O)c3ccccc3)cc2)CC1,5.5,102.0,103.0,23.4
O=C(NCc1ccco1)c1noc2c1CCc1ccccc1-2,5.7,99.0,103.0,-13.8
Cc1cccc(-n2nnnc2SCC(=O)N2CC(C)OC(C)C2)c1 (configuration not stated),-8.7,101.0,98.0,-9.0
O=C(Nc1nncs1)c1cc2c(s1)CCC2,5.8,103.0,108.0,6.8
Cc1cc(NC(=O)COc2ccc3oc4ccccc4c3c2)no1,28.5,101.0,98.0,6.9
COc1ccc(CN(C)CCc2ccc(OC)c(OC)c2)cc1,0.1,103.0,98.0,nt
Cc1ccc(-c2ccc(=O)n(CC(=O)N3CC(C)CC(C)C3)n2)cc1 (configuration not stated),115.8,101.0,99.0,-3.9
C=CCc1ccccc1OCc1cccc(C(=O)O)c1,-77.5,101.0,99.0,-9.5
COc1ccc(N2CCN(C(=O)CCCC(=O)c3ccccc3)CC2)cc1,2.0,103.0,103.0,-11.8
CC1CCC(C(C)C)C(OCC(O)CN2CCN(c3ccccc3)CC2)C1 (configuration not stated),-8.5,99.0,97.0,nt
CC(C)c1nc2cc3sc(C(C)C)nc3cc2s1,10.7,100.0,104.0,-54.9
COc1ccc(-c2nnc(SCC(=O)c3ccccc3)o2)cc1,1.6,101.0,100.0,-5.1
COc1ccccc1CN(C)C(=O)CSc1nc(C)c(C)n1C1CCCC1,-3.7,103.0,111.0,-7.8
CCN(CCCN)c1ccccc1,26.9,104.0,104.0,-26.2
ClCc1csc(Nc2ccccc2)n1,11.4,110.0,115.0,nt
COc1ccc(C2C3=C(CC(c4ccco4)CC3=O)Nc3ncnn32)cc1 (configuration not stated),24.6,99.0,106.0,-22.4
CCc1ccc(NC(=O)Cc2cccs2)cc1,nt,110.0,112.0,-20.1
CNCC(O)COc1cccc(OC)c1 (configuration not stated),nt,103.0,103.0,2.6
CSc1ccccc1NS(=O)(=O)c1ccccc1,7.5,99.0,101.0,-21.6
CN(Cc1ccccc1)C(=O)CN(C1CCCCC1)S(C)(=O)=O,-0.4,101.0,101.0,-1.0
Nn1cc(-c2ccccc2)nc1SC(F)F,-1.4,103.0,100.0,-17.6
Cc1cc(Cl)ccc1OCC(=O)N1N=C(C(F)F)CC1(O)C(F)F (configuration not stated),-4.7,104.0,103.0,-3.2
COc1ccc2ccccc2c1C=C1C(=O)OC2(CCCC2)OC1=O,-1.9,101.0,106.0,8.7
CC1CC2(C)Oc3ccccc3C3OCC1(CO)C(C)C32 (configuration not stated),-2.8,101.0,99.0,nt
CCc1ccc(NC(=O)c2cnc(SC)nc2C)cc1,-2.3,104.0,109.0,1.2

# (list continues)
Structure,MbtI inh,Polio RdRp inh,Polio RdRp inh intensity,MenB inh
CCCc1cc(C(=O)Nc2cccc(C(F)(F)F)c2)no1,3.0,101.0,103.0,-13.8
COc1ccc(Nc2oc(-c3ccccc3)nc2C#N)cc1,i,101.0,101.0,-23.0
O=C(c1ccc2nc(/C=C(\O)c3ccc(Cl)cc3)c(=O)[nH]c2c1)N1CCN(c2ccco2)CC1,6.1,120.0,150.0,-36.8
O=c1[nH]c(O)c(C=NCCSCc2cccs2)c(=O)[nH]1,24.5,71.0,232.0,2.4
CCOc1ccc(C(=O)N2CCCCC2)cc1,nt,101.0,99.0,4.0
O=c1nc2s/c(=C\c3ccco3)c(=O)n2nc1Cc1ccccc1,3.5,101.0,103.0,-30.8
CN(C)S(=O)(=O)c1ccc2oc3nnc(SCc4ccccc4)n3c2c1,-0.2,102.0,99.0,8.5
CCOC(=O)Cn1nc(C(F)(F)F)c(Cl)c1C,-9.1,105.0,101.0,-8.7
CCCC(=O)Nc1ccc(Br)cc1,-6.8,105.0,106.0,nt
CCN(CC)S(=O)(=O)c1ccc(C(=O)N2CCc3ccccc32)cc1,-6.7,115.0,130.0,-17.1
COC(=O)CN(c1ccc(C(C)C)cc1)S(C)(=O)=O,-2.3,102.0,102.0,-27.6
N/C(COc1cccc(C(F)(F)F)c1)=N\O,1.4,102.0,105.0,12.1

# Next section, starting with the last five of the part before.
Structure,MbtI inh,Polio RdRp inh,Polio RdRp inh intensity,MenB inh
CCOC(=O)Cn1nc(C(F)(F)F)c(Cl)c1C,-9.1,105.0,101.0,-8.7
CCCC(=O)Nc1ccc(Br)cc1,-6.8,105.0,106.0,nt
CCN(CC)S(=O)(=O)c1ccc(C(=O)N2CCc3ccccc32)cc1,-6.7,115.0,130.0,-17.1
COC(=O)CN(c1ccc(C(C)C)cc1)S(C)(=O)=O,-2.3,102.0,102.0,-27.6
N/C(COc1cccc(C(F)(F)F)c1)=N\O,1.4,102.0,105.0,12.1
CCc1ccccc1N/C=C(\C#N)c1nc2ccccc2[nH]1,0.3,102.0,110.0,1.8
O=C1OCC(c2ccccc2)=C1c1ccc(S(=O)(=O)N2CCOCC2)s1,-10.4,107.0,112.0,-2.8
COCC(C)n1c(COc2ccccc2F)nn(CN2CCN(c3ccc(O)cc3)CC2)c1=S (configuration not stated),21.3,105.0,95.0,-8.0
COc1cccc(C2C3CN(C(C)=O)CC=C3C(C#N)=C(N)C2(C#N)C#N)c1 (configuration not stated),11.0,100.0,108.0,-16.6
CC(C)NC(=O)COc1ccc(S(=O)(=O)N(C)Cc2ccccc2)cc1,10.9,100.0,101.0,-6.7
O=C(OCc1cc(Cl)cc2c1OCOC2)c1c[nH]c2ccccc12,-3.5,105.0,98.0,-9.7
COC(=O)N1N=C(C)CC1(O)c1ccc(Cl)cc1 (configuration not stated),-0.6,101.0,109.0,32.1
Cc1ccc2oc(-c3cccc(Br)c3)nc2c1,-203.2,104.0,98.0,-32.4
O=C1CCCS(=O)(=O)CC1,-6.0,101.0,100.0,-5.6
O=C(NCC1CC1)Nc1ccccc1F,1.1,103.0,102.0,-11.5
COCCn1c(C)cc(C(=O)CSc2nc(C)c(C)n2C2CCCCC2)c1C,6.9,105.0,103.0,5.6
N#CCCn1c(SCC(=O)Nc2ccc(S(=O)(=O)N3CCCCC3)cc2)nc2ccccc21,6.8,102.0,101.0,-36.1
CN(Cc1nc2ccccc2c(=O)[nH]1)C(=O)COc1ccc2c(c1)CCC2,-11.9,55.0*,62.0*,-34.8
N#Cc1ccsc1NC(=O)c1cc(Cl)sc1Cl,35.6,105.0,110.0,-47.6
N/C(=N\OC(=O)c1ccccc1F)c1ccccc1,-5.1,103.0,101.0,9.7
O=C(Cc1c(Cl)cccc1Cl)NCCSc1n[nH]c(=O)[nH]c1=O,-2.0,105.0,105.0,9.6
CC(C)(C)NC(=O)NCc1ccncc1,-8.3,102.0,108.0,-3.2
Cc1cc(C=C(C(N)=O)C(N)=O)c(C)cc1C=C(C(N)=O)C(N)=O,4.9,106.0,110.0,2.6
CCNCC1Cc2ccccc2O1 (configuration not stated),nt,107.0,115.0,-11.8
CC(=O)Nc1ccc(S(=O)(=O)NCc2ccc(C(=O)NC3CCCC(C)C3C)cc2)cc1 (configuration not stated),-1.9,100.0,106.0,-4.5
O=C(CSc1nnc2ccccn12)NC(=O)NC1CCCC1,4.0,100.0,107.0,8.9
CCC(C)NC(=O)CSC1=Nc2ccccc2C2=NC(c3ccccc3)C(=O)N12 (configuration not stated),3.4,102.0,103.0,-16.2
CC(C)NC(=O)c1oc2ccccc2c1CSC1=NCCS1,-9.4,103.0,107.0,-2.4
N#CC(C#N)=NNc1ccccc1,8.3,99.0,102.0,-406.2

# Part of the list above in order of formula weight, descending.
Structure,MbtI inh,Polio RdRp inh,Polio RdRp inh intensity,MenB inh
CCC(C)NC(=O)CSC1=Nc2ccccc2C2=NC(c3ccccc3)C(=O)N12 (configuration not stated),3.4,102.0,103.0,-16.2
O=C(Cc1c(Cl)cccc1Cl)NCCSc1n[nH]c(=O)[nH]c1=O,-2.0,105.0,105.0,9.6
CC(C)NC(=O)c1oc2ccccc2c1CSC1=NCCS1,-9.4,103.0,107.0,-2.4
Cc1cc(C=C(C(N)=O)C(N)=O)c(C)cc1C=C(C(N)=O)C(N)=O,4.9,106.0,110.0,2.6
O=C(CSc1nnc2ccccn12)NC(=O)NC1CCCC1,4.0,100.0,107.0,8.9
CCNCC1Cc2ccccc2O1 (configuration not stated),nt,107.0,115.0,-11.8

# Further structures follow.
Structure,MbtI inh,Polio RdRp inh,Polio RdRp inh intensity,MenB inh
COc1ccc(OC)c(NC(=O)C(CC(=O)O)Cc2ccc(C)cc2)c1 (configuration not stated),-9.3,99.0,100.0,-7.5
CSc1cccc(NS(=O)(=O)c2ccc3c(c2)n(C)c(=O)c(=O)n3C)c1,7.4,102.0,103.0,-14.8
C=CCNC(=O)c1ccccc1SC,8.6,103.0,102.0,-16.7
Cc1ccc(C(=O)N2CCN(C(=O)c3ccccc3)C2)cc1,-2.5,102.0,98.0,-11.1
N#C/C(=C\c1cccnc1)C(N)=S,42.2,101.0,101.0,-38.1
Cc1nc(N)nc(C)c1Cc1ccccc1,nt,108.0,97.0,-25.1
